NPR1 antag – human Npr1 receptor antagonism; HEK293 hNpr1 GloSensor cGMP, ANP-stimulated luminescence; Potency, µM (doses to about 46.3 µM), inactives show at the highest dose activity change, negative = inhibition, usual class: inhibitors; 76,000 tested, 1.6% active; P16066; AID 1347048; active = well fitted inhibition curve with a large enough effect; inconclusive = small, poorly fitted or top-dose-only effect; inactive = no such curve, though single readings can be large or run the other way;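 further: nearly all actives have a fitted effect of over 60% in size; nearly all hits also lower the signal before the agonist is added; a reference antagonist and vehicle were the controls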
Target sequence (P16066 whole entry, looked up): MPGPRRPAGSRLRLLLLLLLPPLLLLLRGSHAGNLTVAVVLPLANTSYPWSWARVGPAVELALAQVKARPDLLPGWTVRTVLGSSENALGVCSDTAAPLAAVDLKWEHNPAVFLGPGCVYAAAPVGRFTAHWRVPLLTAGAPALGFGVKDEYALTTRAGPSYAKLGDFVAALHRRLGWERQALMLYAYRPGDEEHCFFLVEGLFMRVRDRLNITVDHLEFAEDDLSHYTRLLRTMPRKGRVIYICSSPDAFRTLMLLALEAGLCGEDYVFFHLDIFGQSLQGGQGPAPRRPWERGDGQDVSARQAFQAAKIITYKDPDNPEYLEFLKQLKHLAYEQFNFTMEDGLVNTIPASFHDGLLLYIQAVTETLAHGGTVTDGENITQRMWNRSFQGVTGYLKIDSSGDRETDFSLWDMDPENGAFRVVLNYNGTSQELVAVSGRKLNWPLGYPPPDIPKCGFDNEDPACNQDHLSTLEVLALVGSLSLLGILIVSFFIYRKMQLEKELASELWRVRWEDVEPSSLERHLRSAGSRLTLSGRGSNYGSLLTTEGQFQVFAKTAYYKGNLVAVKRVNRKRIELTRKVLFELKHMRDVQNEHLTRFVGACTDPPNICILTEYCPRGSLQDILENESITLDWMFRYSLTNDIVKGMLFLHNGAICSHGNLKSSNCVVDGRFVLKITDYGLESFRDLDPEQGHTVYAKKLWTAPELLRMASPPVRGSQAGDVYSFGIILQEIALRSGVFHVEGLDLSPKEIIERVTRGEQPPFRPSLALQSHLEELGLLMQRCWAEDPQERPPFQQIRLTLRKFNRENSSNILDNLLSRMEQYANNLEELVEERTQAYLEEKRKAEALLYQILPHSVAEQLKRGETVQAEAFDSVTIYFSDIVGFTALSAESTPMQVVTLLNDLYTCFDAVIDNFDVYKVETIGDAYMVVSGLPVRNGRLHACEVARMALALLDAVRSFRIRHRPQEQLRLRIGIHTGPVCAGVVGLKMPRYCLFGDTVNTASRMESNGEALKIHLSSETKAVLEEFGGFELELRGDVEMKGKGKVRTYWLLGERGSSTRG
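Compound pre-incubated 30 min at room temperature on GloSensor-loaded HEK293 cells stably carrying hNpr1 and the pGS-40F cGMP biosensor. Stimulation uses hNppA at 0.1 nM final; luminescence is taken at baseline and 20 min post-agonist.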
* hit, by the source's call; ? = inconclusive; & = joins results of further samples; [ ] = remark or other dose. On the % scale 0 is the no-effect control and ±100 the full control effect; potency means the concentration at half of the fitted maximal effect. A portion of the library, so the mix of outcomes need not match the whole.

SMILES	NPR1 antag
COc1ccc(C(=O)N2C(C(=O)N3CCOCC3)COC23CCN(C(=O)C2CCC2)CC3)cc1 (configuration not stated)	4%
COC[C@@H]1CN(C(=O)c2ccnc(C)c2)C[C@H]1C(N)=O	-18%
O=C1c2cc(N3CCOCC3)nc(-c3ccccc3)c2CN1Cc1ccccc1	?
COCCn1ncc(N2CCCC(CC(=O)NCc3ccc(F)cc3F)C2)cc1=O (configuration not stated)	2%
CC(C)(C)c1ccc(C(=O)N2C[C@@H](C(=O)O)[C@H](c3cccc(F)c3)C2)cc1	2%
COc1ccnc(CN2CCC3(CC2)CN(CCOc2ccccc2)C(=O)O3)c1OC	-1%
COc1ccc(-c2ccnc(N[C@H]3CO[C@H]4[C@@H]3OC[C@@H]4NC(=O)N3CCOCC3)n2)cc1	1%
Cc1nnc2n1CCC(NC(=O)c1ccoc1)CC2 (configuration not stated)	2%
CC(=O)c1ccc(NC(=O)N[C@H]2CO[C@H]3[C@@H]2OC[C@H]3OCC(N)=O)cc1	2%[70.6 µM]
COc1ccc(CN2CCC(CO)(CN3CCCC3)CC2)cc1C	-1%
CCn1c(CO)nnc1C1CC(NC(=O)Cn2ncc3ccccc32)C1 (configuration not stated)	6%
CC(C)n1cc(CN2CCCC2C(=O)Nc2cccc(-n3cccn3)c2)cn1 (configuration not stated)	-2%
O=C(NCc1ccccn1)C1CC(=O)N(c2n[nH]c3cccc(F)c23)C1 (configuration not stated)	3%
CC(C)NC(=O)C1CCC(=O)N1C1CCN(C(=O)C2CCCCC2)CC1 (configuration not stated)	4%
Cn1nccc1C(=O)N1C[C@@H](F)C[C@H]1C(=O)N1CCCCC1	0%
CCNC(=O)c1cccnc1OC1CCN(C(=O)c2ccoc2)C1 (configuration not stated)	-2%
NC(=O)Cc1c[nH]c2ncc(-c3ccc(F)cc3)cc12	1%[70.6 µM]
O=C(NC1CCN(C(=O)N2CC3CC(C2)[C@H]2CCCC(=O)N2C3)CC1)c1ccccc1F (some centres not stated)	-1%
O=C(c1ccc(CC2CCN(C(=O)c3nccc4ccccc34)CC2)cc1)N1CCOCC1	-6%
Cc1ccccc1OC1(C(=O)O)CCN(c2ncccc2C(N)=O)CC1	31%[activator]
Cc1cc(C)n(C)c(=O)c1C(=O)N1CCC2(CC1)Nc1ccccc1NC2=O	3%
CO[C@H]1C(=O)N(C2CCN(C(=O)c3nn(C)c4ccccc34)CC2)[C@H]1c1ccncc1	8%
Cc1cc(F)ccc1NC(=O)C1CCN(C(=O)c2ncn3c2COC(c2ccc(F)cc2)C3)CC1 (configuration not stated)	-1%
CCNC(=O)NCC12CCC=C1N(C)C(=O)CC2 (configuration not stated)	5%
O=C(COc1ccccc1)N1CCC2(CC1)OCCN(CC1CCOCC1)C2=O	-1%[70.6 µM]
CN(Cc1cnccn1)C(=O)c1cc(COc2ccc3c(c2)OCO3)[nH]n1	3%
CN(C)C[C@@H]1CN(Cc2ccccc2)C[C@H]1NC(=O)c1ccn[nH]1	16%
COc1cccc(NC(=O)Cn2c(=O)c(-c3noc(C)n3)c3n(c2=O)CCCCC3)c1	-13%
O=C(c1cccnc1)N1CCC(N2C(=O)C(OCC3CC3)C23CCOCC3)CC1 (configuration not stated)	10%
CCc1ccc(C(C)NC(=O)c2ccc3c(c2)N(S(=O)(=O)c2ccccc2)CC3)cc1 (configuration not stated)	5%
COc1cccc(NC(=O)[C@@H]2C[C@H](c3cccc(C(F)(F)F)c3)N(Cc3cnn(C)c3)C2)c1	0%
CC1Oc2ccc(NC(=O)Cc3ccccc3)cc2CN(Cc2ccc(Cl)cc2)C1=O (configuration not stated)	11µM*
O=C(NCc1ccccc1)c1cc2c(s1)CCN(C(=O)c1ccccc1)C2	-1%
O=C(Cn1ccn2nc(-c3ccccc3)c(CO)c2c1=O)N1CCN(c2ccccc2F)CC1	-3%
COCCNC(=O)NC[C@H]1O[C@@H]2C[C@@H](CC(=O)NCc3cnn(C)c3)O[C@@H]2[C@@H]1O	3%[70.6 µM]
O[C@@H]1CCN(Cc2nc(C3(O)CCN(C4COC4)CC3)cs2)C1	-1%[70.6 µM]
O=C(c1ccc(-c2ccco2)cc1)N1CCOC(c2ccccc2)C1 (configuration not stated)	-14%
Cc1cc(C)c(NC(=O)Cn2c(=O)c(-c3noc(C)n3)c3n(c2=O)CCCC3)c(C)c1	3%
O=C(c1nc(-c2cccc(C(F)(F)F)c2)c2ccccn12)N1CCOCC1	-8%
Cc1cn2nc(C(=O)NCCc3ccccc3)cc2c(=O)[nH]1	-21%
COCCOc1ccc2c(n1)CCN(C(=O)c1ccc(OC)cc1)C2	2%
CN1C(=O)C(c2ccccc2)CC12CCN(S(C)(=O)=O)CC2 (configuration not stated)	1%
Cc1nn(C)c(C)c1CCC(=O)N1C[C@@H](Oc2cccnc2)C[C@H]1C(=O)NC1CC1	1%
O=C(c1ccccc1C(F)(F)F)N1CCC(CO)(CN2CCCC2)CC1	0%
CN1CCCCC(CC(=O)Nc2ccc(F)c(F)c2)C1=O (configuration not stated)	-4%
Cc1nnnn1-c1cccc(C(=O)N2CCCC3(CC2)CNC(=O)O3)c1 (configuration not stated)	-1%
COC(=O)N1CCN(c2nc3ncccc3o2)CC1	-11%[70.6 µM]
CCn1cnnc1CC1CCNC1 (configuration not stated)	1%
O=C1CCN(Cc2cccc(F)c2)CCCC(C(=O)NCc2ccncc2)CCN1 (configuration not stated)	0%
O=C1N(Cc2ccccc2)c2ccccc2C12CCN(Cc1ccccc1)C2 (configuration not stated)	5%
Cc1ccccc1C(=O)N1C(C(=O)N2CCOCC2)COC12CCC(C)CC2 (configuration not stated)	-7%
C=CCNC(=O)N1CCC(C2CCN(Cc3cccc(F)c3F)CC2)C1 (configuration not stated)	2%
COc1ccc(-c2nnc3n2CCN(C(=O)c2cccc(Cl)c2)C3)cc1	4%
COCC1CN(C(=O)CCc2cccc(OC)c2)CC12CCNCC2 (configuration not stated)	-2%
COCC(=O)N[C@@H]1CN(Cc2cccc(C#N)c2)CC[C@@H]1c1n[nH]c(C)n1	3%
CCN1CCC(CCNC(=O)C2CCCN(Cc3ccncc3)CCC(=O)NCC2)CC1 (configuration not stated)	1%
COc1cccc(CN2C[C@@H](CO)[C@H](c3nc(C)no3)C2)c1OC	6%
C[C@@H]1C(=O)O[C@H]2[C@H]1CC[C@@]1(C)Cc3sc(Nc4ccc(O)cc4)nc3[C@@H](C)[C@H]21	?
CN(CCc1ccccc1)CCN1CC2(CCN(c3ncccc3C#N)CC2)OC1=O	-3%
COCCN1CCNc2nc(COc3cccc(C(F)(F)F)c3)n(Cc3ccccc3)c2C1=O	-4%
Following part.
SMILES	NPR1 antag
CC(C)CN1C(=O)c2cccn2CC1C(=O)NC1CCCC1 (configuration not stated)	5%
O=C(O)c1ccc(CN2C[C@@H](F)[C@@H](OCc3nc4ccc(C(F)(F)F)cc4[nH]3)C2)cc1	1%
O=C(NC1CCN(c2cc(-c3cccs3)[nH]n2)CC1)c1ccc(F)cc1Cl	-19%
O=C(Cc1cccs1)NC1CCc2nnc(C3CC3)n2CC1 (configuration not stated)	3%
Cc1ccc2c(ccn2CCNC(=O)C[C@H]2NC(=O)c3ccccc3NC2=O)c1	1%
CCOc1ccccc1C(=O)N1CCC(c2n[nH]c(=O)n2-c2ccccc2)CC1	8%
O=C(NCCn1ccn2nc(-c3ccc(F)cc3)cc2c1=O)c1cccc2[nH]ccc12	-13%
CC(C)CN1CCN(C(=O)C2CCCN(S(=O)(=O)c3ccccc3)CCC(=O)NCC2)CC1 (configuration not stated)	2%
CCOc1ccc(CC(=O)N2CCC(n3cc(-c4nc(C5CC5)no4)nn3)C2)cc1 (configuration not stated)	-13%
O=C1CC(c2noc(-c3ccco3)n2)CN1C1CCCCC1 (configuration not stated)	-2%
COc1cccc(C(O)c2nc(C(=O)Nc3nc(C)cs3)c(C)o2)c1 (configuration not stated)	18µM*
CCc1nc2c(c(-c3ccc(Cl)cc3)n1)CCN(Cc1ccc(N(C)C)cc1)CC2	16%
CCCCn1c(CN(C)Cc2cnn(-c3ccccc3C)c2)cnc1S(=O)(=O)CC	-16%
COc1ccc(Cl)cc1NC(=O)CN1C(=O)NC2(CCCCC2)C1=O	0%
CCn1cc(S(=O)(=O)N2CCC(C(=O)O)(n3cccn3)CC2)cn1	-17%
COc1ccc(NC(=O)C2(C)CCCc3cnc(N(C)C)nc32)cn1 (configuration not stated)	1%[70.6 µM]
COc1ccc(-c2cnc(NCc3ccccc3)c3c2CCO3)cc1	6%[70.6 µM]
COc1cccc(C(=O)N2CCCC(c3nn(-c4ccc(Cl)cc4)c(=O)[nH]3)C2)c1 (configuration not stated)	13%
CN1C[C@@H](NS(=O)(=O)Cc2ccccc2)C[C@H]1c1nc(-c2ccccc2)no1	-15%[70.6 µM]
Cc1ccc(C(=O)N2CCC(C(NC(=O)C(C)C)C(=O)NCC(C)C)CC2)cc1 (configuration not stated)	-1%
COc1nccnc1NC1CCN(C(=O)Cc2ccsc2)CC1	1%
CC(=O)N1CCN(c2cncc(C(=O)N3CCOCC3)n2)CC(O)C1 (configuration not stated)	-2%
O=C(COc1ccccc1)N1CCC(c2nc(C3CCOCC3)no2)CC1	2%
COc1ccc(C(=O)N2C(C(=O)NCc3ccco3)COC23CCN(C(=O)CC(C)(C)C)CC3)cc1 (configuration not stated)	4%
Cn1nccc1CCNC(=O)[C@H]1CNC[C@H](C(=O)N2CCOCC2)C1	1%
Cc1ccc(C(=O)N2CCn3c(nn(-c4ccc(F)cc4F)c3=O)C2)cc1	19%
COCC(=O)NC1CCN(c2nc3ncccc3o2)CC1	-3%&8%[70.6 µM]
Cc1cccc(C)c1NC(=O)N1CCCC1c1nncn1C1CCCC1 (configuration not stated)	-5%
COc1ccc(C(C)NC(=O)c2noc(-c3ccc4c(c3)OCO4)n2)cc1 (configuration not stated)	-1%
Cc1cccc(C)c1NC(=O)c1cccc(CN2CCCC2C)c1 (configuration not stated)	2%
COCCNc1ncnc2c1CN(c1ccccc1C)C(=O)CN2C	10%[70.6 µM]
Cc1cn(CC(=O)N[C@@H]2COCC[C@@H]2OCC2CC2)c(=O)[nH]c1=O	0%
CN1[C@@H](CCC(=O)N2CC[C@@H](O)C2)CNC(=O)[C@@H]2[C@H]1CCN2Cc1csnn1	12%[70.6 µM]
Cn1c(Cn2ccnc2)nnc1C1CCCN(c2ncccc2C(N)=O)C1 (configuration not stated)	-2%
Cc1ccccc1C(=O)N1CCc2c(nc(-c3ccncc3)nc2N(C)C)C1	-2%
COc1cccc(CCC(=O)NC2CCN(c3cc(-c4ccccc4)[nH]n3)CC2)c1	-16%
COc1ccc(C(=O)N2CCCC(CO)CCNC(=O)CC2)cc1 (configuration not stated)	0%
CCN(CC)Cc1nc(C2(O)CCN(Cc3ccccc3C(F)(F)F)CC2)cs1	8%[70.6 µM]
CNC(=O)[C@@H]1CN(C(=O)c2cc(C3CC3)[nH]n2)C[C@H]1c1nc(COC)no1	0%
CN(C)[C@@H]1CO[C@H](CNC(=O)Nc2ccccc2)[C@H]1O	4%[70.6 µM]
COc1cccc(-c2cc3c(=O)n(CCNC(=O)c4cc(F)ccc4F)ccn3n2)c1	?
COc1cccc(CCC(=O)N2C[C@@H](CO)[C@H](c3ccncc3)C2)c1	3%
Cc1nn(-c2ccc(F)cc2)c(Oc2ccccc2)c1CCC(=O)N1CCOCC1	-16%
c1cncc(Nc2cc3c(cn2)CN(Cc2c[nH]c4ccccc24)CCN3)c1	-23%[70.6 µM]
COCCNC(=O)[C@H]1C[C@H](Oc2ccccc2)CN1C(=O)c1cccc(F)c1	13%
CNc1nc(N2C[C@H]3CN(CCO)C[C@@]3(C(=O)O)C2)nc2c1CCC2	-1%
Cc1cnc(C(=O)N[C@@H]2CCC[C@@H]2C(=O)NCc2ccccc2F)cn1	4%
Cc1ccc(CN2CCOCCNC(=O)[C@H]3CCCC[C@H]32)o1	2%

2 entries picked at random from those above, as already listed:
SMILES	NPR1 antag
CNc1nc(N2C[C@H]3CN(CCO)C[C@@]3(C(=O)O)C2)nc2c1CCC2	-1%
COCCNC(=O)[C@H]1C[C@H](Oc2ccccc2)CN1C(=O)c1cccc(F)c1	13%

Among those listed so far, 15 contain sulfur:
SMILES	NPR1 antag
CCc1ccc(C(C)NC(=O)c2ccc3c(c2)N(S(=O)(=O)c2ccccc2)CC3)cc1 (configuration not stated)	5%
O=C(NCc1ccccc1)c1cc2c(s1)CCN(C(=O)c1ccccc1)C2	-1%
O[C@@H]1CCN(Cc2nc(C3(O)CCN(C4COC4)CC3)cs2)C1	-1%[70.6 µM]
CN1C(=O)C(c2ccccc2)CC12CCN(S(C)(=O)=O)CC2 (configuration not stated)	1%
C[C@@H]1C(=O)O[C@H]2[C@H]1CC[C@@]1(C)Cc3sc(Nc4ccc(O)cc4)nc3[C@@H](C)[C@H]21	?
O=C(NC1CCN(c2cc(-c3cccs3)[nH]n2)CC1)c1ccc(F)cc1Cl	-19%
O=C(Cc1cccs1)NC1CCc2nnc(C3CC3)n2CC1 (configuration not stated)	3%
CC(C)CN1CCN(C(=O)C2CCCN(S(=O)(=O)c3ccccc3)CCC(=O)NCC2)CC1 (configuration not stated)	2%
COc1cccc(C(O)c2nc(C(=O)Nc3nc(C)cs3)c(C)o2)c1 (configuration not stated)	18µM*
CCCCn1c(CN(C)Cc2cnn(-c3ccccc3C)c2)cnc1S(=O)(=O)CC	-16%
CCn1cc(S(=O)(=O)N2CCC(C(=O)O)(n3cccn3)CC2)cn1	-17%
CN1C[C@@H](NS(=O)(=O)Cc2ccccc2)C[C@H]1c1nc(-c2ccccc2)no1	-15%[70.6 µM]
COc1nccnc1NC1CCN(C(=O)Cc2ccsc2)CC1	1%
CN1[C@@H](CCC(=O)N2CC[C@@H](O)C2)CNC(=O)[C@@H]2[C@H]1CCN2Cc1csnn1	12%[70.6 µM]
CCN(CC)Cc1nc(C2(O)CCN(Cc3ccccc3C(F)(F)F)CC2)cs1	8%[70.6 µM]
